CHT block – inhibitors of human choline transporter CHT; CHT-expressing cells, membrane potential dye, choline response; active compounds read low; B-score at 10 µM; actives 0.86% (n = 310,000); AID 488975, 2010;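 active = B-score over 3 SD under the library average, and starting fluorescence ratio not unusually high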;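 also: choline stimulus applied at its EC90 after an EC20 pre-addition; B-score computed on integrated fluorescence ratio after choline addition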
Target sequence (Q9GZV3 whole entry, looked up): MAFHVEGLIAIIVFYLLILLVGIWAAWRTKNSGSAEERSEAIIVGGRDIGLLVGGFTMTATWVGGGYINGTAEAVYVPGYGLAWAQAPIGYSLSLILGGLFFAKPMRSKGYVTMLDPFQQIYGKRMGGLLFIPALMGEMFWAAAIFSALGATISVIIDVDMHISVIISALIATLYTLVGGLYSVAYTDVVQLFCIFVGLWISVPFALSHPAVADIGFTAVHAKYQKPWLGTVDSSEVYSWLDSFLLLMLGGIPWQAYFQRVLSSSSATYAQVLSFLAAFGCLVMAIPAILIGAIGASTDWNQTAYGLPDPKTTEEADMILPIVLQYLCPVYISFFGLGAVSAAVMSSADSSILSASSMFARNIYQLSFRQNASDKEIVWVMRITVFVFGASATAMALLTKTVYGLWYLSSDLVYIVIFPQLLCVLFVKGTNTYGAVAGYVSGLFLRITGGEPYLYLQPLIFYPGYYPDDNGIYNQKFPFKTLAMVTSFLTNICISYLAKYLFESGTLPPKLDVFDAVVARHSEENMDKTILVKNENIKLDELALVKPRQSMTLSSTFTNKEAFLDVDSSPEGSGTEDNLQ
Calls only; i = inactive. Some of the compounds tested, and most or all hits are left out here.

SMILES | CHT block
O=C(NC(CCl)c1ccccc1)c1ccc(Cl)cc1 (stereo not given) | i
C=CCN1C(=O)C2(c3ccccc31)C1CCCC=C1C(C#N)=C(N)C2(C#N)C#N (stereo not given) | i
COc1ccc(CC(=O)Nc2sccc2C#N)cc1S(=O)(=O)N1CCOCC1 | i
CCOc1ccc(NC(=O)C2C3CC/C=C\CCC32)cc1 (stereo not given) | i
COc1ccc(-c2csc3ncnc(N4CCN(S(=O)(=O)c5cccc(Br)c5)CC4)c23)cc1 | i
CCCCCC(=O)NC(Cc1ccc(OC)c([N+](=O)[O-])c1)C(=O)O (stereo not given) | i
O=c1c2cc(Br)ccc2nc(-c2cccc(Cl)c2)n1O | i
C/C(=N/O)c1ccc2c(c1)OCCOCCOc1cc(/C(C)=N/O)ccc1OCCOCCO2 | i
COc1ccccc1NC(=O)N1CCc2[nH]c3ccc(F)cc3c2C1 | i
COc1cc(SC)ccc1C(=O)NC(C)C | i
CC1(C)Cc2c(cnn2-c2ccccc2)C(NC(=O)CCc2ccncc2)C1 (stereo not given) | i
Cc1cccc(-n2c(C)nc3c(cnn3-c3ccc(F)cc3)c2=O)c1 | i
COc1ccc(S(=O)(=O)/C(C#N)=C/Nc2ccc(NC(C)=O)cc2)cc1 | i
CCNC(=O)COC(=O)Cc1ccc(Cl)cc1Cl | i
c1ccc(NC2=NCCCCS2)cc1 | i
CN1CCN(CCCC(=O)c2ccc(C3CCCC3)cc2)CC1 | i
Fc1ccc(-c2csc(N3CCOCC3)n2)cc1 | i
Cc1ccc(S(=O)(=O)NC2CC(C)(C)NC(C)(C)C2)cc1 | i
COc1ccccc1C(=O)N/C(=C/c1ccc(Br)cc1)C(=O)NCC(=O)O | i
CCCC1CC(CCc2ccccc2)OS(=O)(=O)N1 (stereo not given) | i

Exported as tab-separated lines: 3 of the compounds above.
smiles	CHT block
COc1ccc(S(=O)(=O)/C(C#N)=C/Nc2ccc(NC(C)=O)cc2)cc1	i
CCNC(=O)COC(=O)Cc1ccc(Cl)cc1Cl	i
c1ccc(NC2=NCCCCS2)cc1	i

More structures:
SMILES | CHT block
NC(=O)c1c(NC(=O)c2cccnc2)sc2c1CCCC2 | i
Cc1cc(=O)[nH]c(SCc2cc(=O)n3nc(C)sc3n2)n1 | i
COc1cccc(C(=O)/C=C/Nc2cccc(O)c2)c1 | i
O=C(CCN1C(=O)COc2ccccc21)NCCC1=CCCCC1 | i
N#Cc1ncc(C(F)(F)F)cc1Sc1ccccc1N | i
Cc1ccc(S(=O)(=O)/C(C#N)=C/c2ccccc2OCc2ccccc2)cc1 | i
Cc1ccc(C(C)NC(=O)Cc2cccs2)cc1C (stereo not given) | i
Cn1ccnc1C(O)c1cc(C(C)(C)C)c(O)c(C(C)(C)C)c1 (stereo not given) | i
CCOC(=O)CC(=O)NC(C)(C)CCCCC(C)(C)NC(=O)CC(=O)OCC | i
CC(C)NC(=O)COC(=O)c1ccccc1C(=O)c1ccccc1 | i
O=C(CSc1nc2ccccc2c(=O)n1Cc1ccccc1)Nc1ccc(Br)cc1C(=O)O | i
CSCCC(NC(=O)COc1ccccc1)C(=O)N(C)CC(=O)Nc1c(C)cccc1C (stereo not given) | i
Cn1nnnc1SCCNCc1ccccc1OCc1ccccc1Cl | i
COc1ccc(C(CNC(=O)c2ccc(S(=O)(=O)N3CCOCC3)cc2)N2CCCCC2)cc1 (stereo not given) | i
Cc1cc(C)nc(NC(=O)Cc2ccc([N+](=O)[O-])cc2)c1 | i
CC(C)Nc1nc(NC(C)C)nc(OCCOC(=O)c2ccccc2)n1 | i
O=C(C(NS(=O)(=O)c1cccc2nsnc12)c1ccccc1)N1CCN(c2ccccn2)CC1 (stereo not given) | i
COC(=O)c1ccc(OCC(=O)c2ccccc2OC)cc1 | i
CCOc1cccc(-n2nnnc2-c2ccc(OC)cc2)c1 | i
O=C(O)c1cc2ccc3ccccc3c2oc1=O | i
Cc1cc(Cl)ccc1NC(=S)N1CCOCC1 | i
COc1ccc(N2CCN(C(=O)c3ccc(CS(=O)Cc4ccc(Cl)cc4)o3)CC2)cc1 (stereo not given) | i
COC(=O)CCCCCCCCC(O)CN(C)C (stereo not given) | i
CCS(=O)(=O)N1CCN(CC(=O)NC2CCCCC2)CC1 | i
CCc1ccccc1Nc1nc(-c2cccnc2)cs1 | i
CN(CC(=O)NC1CCN(Cc2ccccc2)CC1)S(=O)(=O)c1ccc2c(c1)c(=O)n(C)c(=O)n2C | i
CCOc1ccc(-c2c(C(=O)N/N=C/c3ccc(C)o3)nnn2-c2nonc2N)cc1 | i
CCCNC(=O)c1cccc(Br)c1 | i
CCOC(=O)C1CCN(C(=O)COc2ccc(Br)cc2C)CC1 | i
COc1cc(C=O)ccc1OCCOCCOc1c(C)cc(Cl)cc1Cl | i
COc1ccc(-c2nnc(SCC(=O)N3CCC(Cc4ccccc4)CC3)o2)cc1OC | i
O=C(COc1ccc(Cl)cc1)OCc1csc(Nc2ccccc2)n1 | i
CC(=O)N1CCC(N(C(=O)Nc2ccc(Cl)cc2)C(C)C)CC1 | i
O=C(Nc1ccc(S(=O)(=O)N2CCCCC2)cc1)c1cccnc1Cl | i
O=C(Nc1ccc(F)c(Cl)c1)Nc1ccc(Cl)cn1 | i
CCN1CCCC1CNCc1cccc(OC)c1OCc1ccccc1 (stereo not given) | i
CC(C)(C)OC(=O)NCCCC[C@H](NC(=O)c1nc[nH]c1C(=O)NC(c1ccccc1)c1ccccc1)C(=O)OC(C)(C)C | i
COc1cc(CNn2nnnc2N)cc(Br)c1OCC(=O)NC(C)(C)C | i
O=C(COC(=O)c1ccc(S(=O)(=O)N2CCOCC2)cc1)NC1CCCCCC1 | i
COC(=O)CNC(=O)Cc1c(F)cccc1Cl | i

Part of the list above, as tab-separated lines.
SMILES	CHT block
CCCC1CC(CCc2ccccc2)OS(=O)(=O)N1 (stereo not given)	i
NC(=O)c1c(NC(=O)c2cccnc2)sc2c1CCCC2	i
Cc1cc(=O)[nH]c(SCc2cc(=O)n3nc(C)sc3n2)n1	i
COc1cccc(C(=O)/C=C/Nc2cccc(O)c2)c1	i
O=C(CCN1C(=O)COc2ccccc21)NCCC1=CCCCC1	i

(more compounds)
SMILES | CHT block
CCN1CCN(C(CNS(=O)(=O)c2ccc(F)cc2)c2cccnc2)CC1 (stereo not given) | i
Cn1cnnc1SCc1nnc(-c2ccccc2Br)o1 | i
CCN(CC)c1ccc(C2CC(=O)NC3=C2C(=O)CC(C)(C)C3)cc1 (stereo not given) | i
CC1(C)CC(=O)C2=C(C1)Nc1cc(Cl)ccc1S2 | i
O=C(N/N=C/c1ccc(C(=O)O)cc1)C1=NNC(c2ccccc2)(c2ccccc2)C1 | i
Cc1cc(/C=C(\C#N)C(=O)NCC2CCCO2)c(C)n1-c1ccc(Cl)cc1 (stereo not given) | i
CCOc1ccc(NC(=S)NC(C)C(c2ccccc2)N2CCN(C)CC2)cc1 (stereo not given) | i
CCCCn1c2nc3ccccc3nc2c2c(=O)n(C(C)CC)cnc21 (stereo not given) | i
CNC(=S)N(CCCO)Cc1cc2cc3c(cc2[nH]c1=O)OCO3 | i
O=C(Cn1cnc2ccccc2c1=O)NCc1ccco1 | i
O=C(OCc1cn(Cc2ccccc2)nn1)c1ccccc1 | i
Cc1c(C)c2ccc(OCC(=O)NC(Cc3ccc(Cl)cc3)C(=O)O)cc2oc1=O (stereo not given) | i
CC(C)(C)OC(=O)NCCCC[C@H](NC(=O)c1nc[nH]c1C(=O)N[C@@H](CCCCNC(=O)OC(C)(C)C)C(=O)OC(C)(C)C)C(=O)OC(C)(C)C | i
COc1ccc(S(=O)(=O)N2CCOC23CCN(C(=O)c2ccccc2OC)CC3)cc1 | i
O=C(CCNC(=O)c1ccc(Cl)cc1)NCc1cccc(C(F)(F)F)c1 | i
CC(C)CCN1CCN(Cc2cc3ccccc3[nH]2)CC1CCO (stereo not given) | i
Cc1ccc(NNC(=S)Nc2ccc(C(C)C)cc2)c(C)c1 | i
COc1ccc(-c2c(NC(=O)c3ccco3)oc3c(C)cccc3c2=O)cc1OC | i
CC(Oc1cc2oc(=O)c3c(c2cc1Cl)CCCC3)C(=O)NCc1ccccn1 (stereo not given) | i
CCOC(=O)c1sc(C)c2c(=O)n(CC(=O)c3ccc(Br)cc3)nnc12 | i

Fetched by structure from the list above, five records:
SMILES | CHT block
CC(C)Nc1nc(NC(C)C)nc(OCCOC(=O)c2ccccc2)n1 | i
COc1ccc(-c2c(NC(=O)c3ccco3)oc3c(C)cccc3c2=O)cc1OC | i
Cc1cccc(-n2c(C)nc3c(cnn3-c3ccc(F)cc3)c2=O)c1 | i
COc1cccc(C(=O)/C=C/Nc2cccc(O)c2)c1 | i
COc1ccc(C(CNC(=O)c2ccc(S(=O)(=O)N3CCOCC3)cc2)N2CCCCC2)cc1 (stereo not given) | i

Remaining list, next part
SMILES | CHT block
CCN(CC)c1ccc(C(=O)Nc2ccccc2)cc1[N+](=O)[O-] | i
C/C(N)=C(/C#N)C(=O)COC(=O)c1cc(S(=O)(=O)N2CCCCC2)ccc1C | i
Cc1[nH]c(=O)[nH]c(=O)c1S(=O)(=O)N1c2ccc(F)cc2CCC1C (stereo not given) | i
Nc1nonc1-n1nnc(C(=O)N/N=C/c2c(Cl)cccc2Cl)c1CSC1=NCCS1 | i
Cc1cc(C(=O)NC(C)C2CCCO2)cs1 (stereo not given) | i
Cc1ccc(C(=O)N/C(=C\c2ccc(-c3cc(Cl)ccc3Cl)o2)C(=O)NCc2cccnc2)cc1 | i
CC(=O)Nc1ccc(CN2CCN(CCC(C)C)C(CCO)C2)cc1 (stereo not given) | i
O=C(/C=C/c1cccc(Cl)c1)NCc1ccccc1 | i
COc1cccc(N2CC(C(=O)N3CCC4(CC3)CC(=O)c3ccccc3O4)CC2=O)c1 (stereo not given) | i
Cc1cc(C)n2nc(C(=O)OCC(=O)N(C)C3CCCCC3)nc2n1 | i
CC(Sc1cccc[n+]1[O-])C(=O)Nc1ccc(Oc2ccccc2)cc1 (stereo not given) | i
O=C(NCc1cccnc1)c1ccc(-c2ccccc2[N+](=O)[O-])o1 | i
COc1ccc(NC(=O)CSc2nc3c(c(=O)n2C)SCC3)cc1OC | i
COc1nccnc1NS(=O)(=O)c1ccc(NC(=O)c2ccccc2Br)cc1 | i
CCC(O)C1CCN(Cc2cn(-c3ccc(OC)cc3)nc2-c2cccc(F)c2)CC1 (stereo not given) | i
COc1ccc(OC)c(-c2nc(C)sc2CC(=O)O)c1 | i
COc1ccc(C)cc1-n1nnnc1SCc1nc2ccccc2s1 | i
Cc1ccc(C(=O)C2CCNCC2)cc1 | i
CC(NC(=O)C12CC3CC(CC(C3)C1)C2)C(=O)N/N=C/C1=C(N2CCOCC2)C(=C\c2cccc([N+](=O)[O-])c2)/CC1 (stereo not given) | i
CC1CCCC(C(=O)O)N1C(=O)CCSC(=O)c1ccccc1 (stereo not given) | i
CC1(C)CC(=O)C/C(=N\NC(=O)Cc2ccccc2)C1 | i
Cc1nc(-c2ccc(NC(=O)C(C)(C)C)cc2)c(-c2ccccc2)o1 | i
Cc1cc(NC(=O)COC(=O)COc2ccc3c(c2)CCC3)no1 | i
Cc1ccc(S(=O)(=O)N(CC(=O)NCc2ccco2)C2CCCCC2)cc1 | i
Cn1cnnc1SCC(=O)Nc1ccccc1Oc1ccccc1 | i
O=C(NC(=S)NCc1cccnc1)c1ccc([N+](=O)[O-])cc1 | i
Cc1ccc(C(=O)CNc2ccc(Br)cc2)cc1 | i
N#C/C(=C\c1c(N2CCCCC2)nc2ccccn2c1=O)S(=O)(=O)c1ccccc1 | i
COc1ccccc1CCN1CCCC(CN(C)C(=O)c2ccoc2)C1 (stereo not given) | i
Cc1ccc(CN2CCS(=O)(=O)CC2)cc1 | i
OC(COc1ccc2c(c1)OCO2)CN1CCc2ccccc2C1 (stereo not given) | i
O=C(O)C12CC3CC(C1)CC(n1cnc(Cl)n1)(C3)C2 | i
COc1cccc(CN2CCN(C(=O)c3ccc(-c4ccccc4)cc3)CC2)c1 | i
O=C(O)CC12C[C@H]3C[C@@H](C1)CC(n1ncc(N4CCN(c5ccccc5)CC4)c(Cl)c1=O)(C3)C2 | i
O=C(COc1ccccc1-c1ccccc1)NCc1ccco1 | i
CC1CCc2nc3ccc(S(=O)(=O)N4CCC(C(=O)N5CCCCCC5)CC4)cc3c(C(=O)O)c2C1 (stereo not given) | i
COc1ccc(S(=O)(=O)Nc2ccc3c(c2)OCCO3)cc1Cl | i
CCOC(=O)[C@@H]1[C@H]2COc3ccccc3[C@H]2N2C(=O)N(c3cccc(F)c3)C(=O)[C@]12C | i
Nc1c(C(=O)Nc2ccccc2)sc2ncc([N+](=O)[O-])cc12 | i
CCN1CCN(C(=S)Nc2ccc(C(C)=O)cc2)CC1 | i
C/C(CC(=O)Nc1ccccc1C)=N\NC(=O)Cc1csc(N)n1 | i
COc1ccc(NS(=O)(=O)c2cccc(C(=O)NCC(c3ccccc3)N(C)C)c2)cc1 (stereo not given) | i
Cc1ccnc(NC(=O)CCC2COc3ccccc3O2)c1 (stereo not given) | i
COc1ccccc1C(c1nnnn1CC1CCCO1)N1CCN(c2ccccc2)CC1 (stereo not given) | i
COC(=O)CCNC(=O)c1ccc2nc(Cc3ccc(OC)c(OC)c3)oc2c1 | i
CCCCCOC(=O)C1=C(C)Nc2nnnn2C1c1ccc(OC)c(OC)c1OC (stereo not given) | i
COc1ccccc1N(CC(=O)NC1CCCCC1)S(=O)(=O)c1cccs1 | i
CCN(C(=O)COC(=O)/C=C/c1cnc2ccccc2n1)c1ccccc1 | i
CCOc1ccc(C2C(C(=O)C3CC3)N3C=C(C#N)C=CC3C2(C#N)C#N)cc1 (stereo not given) | i
Cc1ccc(NC(=O)CC(NCC2CCCO2)C(=O)O)cc1C (stereo not given) | i

Source: PubChem BioAssay (Johns Hopkins Ion Channel Center)
